MT1-MMP act inh: blocks activation of human MT1-MMP; P50281; GFP/RFP ratio change, % at 20 µM; hit rate 0.061% among 360,000; AID 651647; HT1080 RFP-PRO-GFP cells, GFP/RFP ratio fluorescence, overnight; percent of plate control window, DMSO zero;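 active = GFP/RFP ratio change of at least 30% with cell ATP level not reduced by more than half and red fluorescence within 50% of control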; also: strong numbers were not always called active
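system = RFP-PRO-GFP reporter HT1080 cells | dosing = 20 µM single dose, 1% DMSO | timing = overnight cell settling, then overnight compound exposure, 37 °C, 5% CO2 | read-out basis = GFP/RFP fluorescence ratio | controls = DMSO and RFP-L50D-GFP cell wells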
Rce1 inhib: yeast Ras-converting enzyme inhibition; Q03530; AID 2563; calls only; yeast membranes, quenched prenylated peptide cleavage fluorescence; hit rate 0.27% among 290,000;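 active = fall in fluorescence gain of 50% or more versus controls, with final raw signal at or below 3038400; inconclusive = same 50% fall but final raw signal above 3038400; inactive = fall in fluorescence gain under 50%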;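 also: plate controls were neutral control wells for no effect and wells lacking membranes for full effect; tested at 10 µM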
CSC inhib: cancer stem cell inhibition; hit rate 1.1% among 300,000; inhibition, % at 7.5 µM; cancer stem cell-like cells viability, luminescence;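 active = mean at 75% or more and at least half the replicates too; inconclusive = mean and replicates disagree; tested in HMLE shEcad cells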;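 also: 0% = median of negative and 100% = median of positive control wells; the first replicate is given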
HIV Env fusion: HIV envelope-mediated fusion inhibition | HeLa-JRFL Env/CEM21 cell fusion, luciferase | inhibition, % at 12.3 µM | hit rate 1.1% among 360,000 | AID 651610;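 active = mean replicate inhibition score of at least 50 and every replicate individually at or above 50; inconclusive = only one of the two criteria met; inactive = mean below 50 and not all replicates reaching 50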;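 also: 0% = plate neutral controls and 100% = maraviroc near 300 nM; one replicate is shown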
eIF4H inh: inhibitors of RNA binding by human eIF4H; Q15056; eIF4H fluorescence polarization binding assay; inhibition, % at 35 µM; hit rate 0.94% among 290,000;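 active = 50% or more with normal probe brightness, or confirmed in later tests; inconclusive = above 50% with abnormal brightness, or retests that disagree; inactive = below 50% or failed in later tests; about a fifth of its hits are not listed in these tables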;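 also: calls also rest on retests at 20 µM and on dose response follow-up; 0% = protein and probe with vehicle and 100% = probe without protein; strong numbers were not always called active; many hits fall short of the cut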
Yeast UUG start: yeast start codon fidelity modulation; S. cerevisiae UUG-firefly luciferase reporter, luminescence/redox ratio; activity score, % at 18.7 µM; hit rate 0.13% among 350,000;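 active = replicate mean at a twofold rise or more, about +100% in these data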;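 also: firefly luciferase made from a UUG start codon reports start codon fidelity; reporter light over untreated wells divided by growth signal over untreated wells; some hits fall short of that in this replicate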
PABP FP inh: PABP-poly(A) binding inhibition | PABP-poly(A) RNA binding, fluorescence polarization | inhibition, % at 35 µM | hit rate 1% among 290,000 | AID 2014;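 active = 50% or more with normal probe brightness, or confirmed in later tests; inconclusive = above 50% with abnormal brightness, or retests that disagree; inactive = below 50% or failed in later tests; about a fifth of its hits are not listed in these tables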;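 also: calls also rest on retests at 20 µM and on dose response follow-up; controls were probe without protein and protein plus probe with vehicle; some compounds called inactive have numbers as strong as hits; many hits fall short of the cut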
Target sequence (P11940 whole entry, looked up): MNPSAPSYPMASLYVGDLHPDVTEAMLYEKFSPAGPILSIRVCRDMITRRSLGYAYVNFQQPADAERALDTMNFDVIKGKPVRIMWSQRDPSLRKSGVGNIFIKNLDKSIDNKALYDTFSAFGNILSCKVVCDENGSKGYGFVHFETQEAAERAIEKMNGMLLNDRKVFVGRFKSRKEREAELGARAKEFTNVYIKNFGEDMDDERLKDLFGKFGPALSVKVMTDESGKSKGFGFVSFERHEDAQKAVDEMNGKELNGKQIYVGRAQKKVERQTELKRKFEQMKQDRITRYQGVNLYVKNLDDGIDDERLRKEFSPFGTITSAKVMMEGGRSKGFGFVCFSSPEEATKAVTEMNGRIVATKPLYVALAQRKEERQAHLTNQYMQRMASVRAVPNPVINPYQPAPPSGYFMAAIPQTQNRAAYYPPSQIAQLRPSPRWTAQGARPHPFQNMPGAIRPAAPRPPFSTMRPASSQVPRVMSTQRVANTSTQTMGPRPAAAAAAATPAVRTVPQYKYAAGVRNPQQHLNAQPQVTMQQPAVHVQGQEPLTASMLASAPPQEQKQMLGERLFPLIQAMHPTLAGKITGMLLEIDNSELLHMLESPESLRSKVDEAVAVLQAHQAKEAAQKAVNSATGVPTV
MT1-MMP act inh RFP: second read-out of MT1-MMP act inh, no call of its own (marks repeat the call); RFP signal change, %; measured here: RFP expression control read;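 0 = vehicle wells; hits needed this value within 50% of zero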
Numbers without * were called inactive. A portion of the library, so the mix of outcomes need not match the whole.

`Cc1ccc2c(c1)CC1(CN2C)C(=O)NC(=O)N(C(C)C)C1=O` (configuration not stated) gave MT1-MMP act inh 8, Rce1 inhib inactive, CSC inhib -2, HIV Env fusion 2, eIF4H inh -1, Yeast UUG start 11, PABP FP inh 16 and MT1-MMP act inh RFP 4.
CCOC(=O)[C@]1(C#N)[C@@H]2C=CC(C(C)=O)=CN2[C@@H](C(N)=O)[C@@H]1c1ccsc1 was read as MT1-MMP act inh -16, Rce1 inhib inactive, CSC inhib 4, eIF4H inh 57*, Yeast UUG start -10, PABP FP inh 66* and MT1-MMP act inh RFP 4.
For Cc1ccc(S(=O)(=O)N2Cc3cc(-c4ccccc4)ccc3-n3nncc3C2)cc1 the results were MT1-MMP act inh -3, HIV Env fusion -12, Yeast UUG start -12 and MT1-MMP act inh RFP -9.
For CN1C(=O)/C(=C/c2ccc(Cl)s2)C(=O)NC1=S the results were MT1-MMP act inh -31, Rce1 inhib inactive, CSC inhib 24, HIV Env fusion 1, eIF4H inh 8, Yeast UUG start -29, PABP FP inh 2 and MT1-MMP act inh RFP 12.
CC(Cc1ccccc1Sc1ccccc1)N(C)C (configuration not stated) was read as MT1-MMP act inh -16, Rce1 inhib inactive, CSC inhib 9, eIF4H inh 5, Yeast UUG start 17, PABP FP inh -1 and MT1-MMP act inh RFP -7.
Cc1ccc(-c2nc3ccccc3c(=O)n2-c2cccnc2)cc1 was read as MT1-MMP act inh 4, Rce1 inhib inactive, CSC inhib -1, HIV Env fusion -12, eIF4H inh -2, PABP FP inh 6 and MT1-MMP act inh RFP 2.
Screening O=C1NC(=O)N(Cc2ccccc2)C(=O)/C1=C/C=C/c1ccco1 returned MT1-MMP act inh -16, Rce1 inhib inactive, CSC inhib 90*, HIV Env fusion inactive, eIF4H inh inconclusive, PABP FP inh inconclusive and MT1-MMP act inh RFP 34.
`Cn1c(=O)n(CC(=O)N2CCC3(CC2)OCCO3)c(=O)c2ccccc21` gave MT1-MMP act inh 4, Rce1 inhib inactive, CSC inhib -5, eIF4H inh 4, Yeast UUG start -42, PABP FP inh 13 and MT1-MMP act inh RFP 8.
`COc1cccc(N=Cc2c(O)n(Cc3ccco3)c(=O)[nH]c2=O)c1` gave MT1-MMP act inh 5, Rce1 inhib inactive, CSC inhib 6, HIV Env fusion 6, eIF4H inh 21, PABP FP inh -2 and MT1-MMP act inh RFP 9.
CCCCc1cc(=O)oc2cc(OCC(=O)N3C[C@H]4C[C@@H](C3)c3cccc(=O)n3C4)c(Cl)cc12 was read as MT1-MMP act inh -3, CSC inhib -7, eIF4H inh -2, Yeast UUG start -7, PABP FP inh 4 and MT1-MMP act inh RFP -2.
`O=P(O)(O)Oc1ccccc1P(=O)(c1ccccc1)c1ccccc1` gave MT1-MMP act inh 3, Rce1 inhib inactive, CSC inhib -16, HIV Env fusion 16, eIF4H inh -1, Yeast UUG start -15, PABP FP inh 11 and MT1-MMP act inh RFP 5.
`COC(=O)c1ccc(NC(=O)CSc2nc3ccc(N4C(=O)C5C6C=CC(C6)C5C4=O)cc3s2)cc1` (configuration not stated) gave MT1-MMP act inh -7, Rce1 inhib inactive, CSC inhib 32, HIV Env fusion 29, eIF4H inh -2, PABP FP inh -13 and MT1-MMP act inh RFP -26.
C=C1C(=O)[C@@]23C[C@H]4[C@@H]5[C@@]6(C)CCC[C@@]57[C@@H]2[C@@H](O)[C@@H]1C[C@H]3[C@H]7N4C6 was read as MT1-MMP act inh -6, Rce1 inhib inactive, CSC inhib 45, Yeast UUG start -11 and MT1-MMP act inh RFP -6.
Screening CCOc1ccc(C(=O)OC2CC3CCC(C2)N3C)cc1 (configuration not stated) returned MT1-MMP act inh -1, Rce1 inhib inactive, CSC inhib 45, HIV Env fusion 8, eIF4H inh -1, Yeast UUG start -22, PABP FP inh -5 and MT1-MMP act inh RFP -2.
Screening Cc1ccc(C)c(NC(=O)CCNC(=O)N2C[C@H]3C[C@@H](C2)c2cccc(=O)n2C3)c1 returned MT1-MMP act inh 13, Rce1 inhib inactive, CSC inhib 1, eIF4H inh -3, Yeast UUG start -8, PABP FP inh -12 and MT1-MMP act inh RFP 1.
`O=C(Cc1ccccc1)N1CCN(Cc2ccc(Cl)cc2)CC1` gave MT1-MMP act inh 5, HIV Env fusion 5, Yeast UUG start -16 and MT1-MMP act inh RFP 3.
`CCOc1ccc(N)cc1` gave MT1-MMP act inh 6, HIV Env fusion 7, Yeast UUG start -23 and MT1-MMP act inh RFP 4.
COc1ccccc1N1CCN(C(CNC(=O)Oc2ccccc2)c2cccnc2)CC1 (configuration not stated) was read as MT1-MMP act inh -1, Rce1 inhib inactive, CSC inhib -8, eIF4H inh 0, Yeast UUG start -1, PABP FP inh -4 and MT1-MMP act inh RFP 2.
Screening NCCCN1CCN(c2ccccc2)CC1 returned MT1-MMP act inh -7, Rce1 inhib inactive, CSC inhib 8, HIV Env fusion 11, eIF4H inh 5, Yeast UUG start 8, PABP FP inh 15 and MT1-MMP act inh RFP -1.
Screening CCCNC(=O)N1[C@H]2CC[C@@H]1C(C(=O)OC)=C(c1ccc(-c3ccccc3)c(F)c1)C2 returned MT1-MMP act inh -7, CSC inhib 8, HIV Env fusion 43, Yeast UUG start -15 and MT1-MMP act inh RFP -23.

Next section, overlapping the part above by 2 compounds.
Screening NCCCN1CCN(c2ccccc2)CC1 returned MT1-MMP act inh -7, Rce1 inhib inactive, CSC inhib 8, HIV Env fusion 11, eIF4H inh 5, Yeast UUG start 8, PABP FP inh 15 and MT1-MMP act inh RFP -1.
Screening CCCNC(=O)N1[C@H]2CC[C@@H]1C(C(=O)OC)=C(c1ccc(-c3ccccc3)c(F)c1)C2 returned MT1-MMP act inh -7, CSC inhib 8, HIV Env fusion 43, Yeast UUG start -15 and MT1-MMP act inh RFP -23.
Screening O=c1c2ccccc2nc(CSc2ncnc3nc[nH]c23)n1-c1ccccc1Cl returned MT1-MMP act inh 0, CSC inhib 15, HIV Env fusion -24, eIF4H inh 6, Yeast UUG start -15, PABP FP inh 38 and MT1-MMP act inh RFP -3.
Screening CC(=O)O[C@H]1C[C@@H]2CC[C@@H]3[C@H](CC[C@]4(C)C(=O)CC[C@@H]34)[C@@]2(C)C[C@@H]1OC(C)=O returned MT1-MMP act inh 0, CSC inhib 1, Yeast UUG start -12 and MT1-MMP act inh RFP -3.
`CCc1c(C)nc(N)nc1N1N=C1SCC(=O)OC` gave MT1-MMP act inh -1, Rce1 inhib inactive, CSC inhib 3, HIV Env fusion 8, eIF4H inh -9, PABP FP inh -10 and MT1-MMP act inh RFP -4.
`CC(=O)OC(C)(C)/C=C/C(=O)[C@](C)(O)[C@H]1[C@H](O)C[C@@]2(C)[C@@H]3CC=C4[C@H](C[C@H](O)C(=O)C4(C)C)[C@]3(C)C(=O)C[C@]12C` gave MT1-MMP act inh -35, eIF4H inh -2, Yeast UUG start -6, PABP FP inh 7 and MT1-MMP act inh RFP -31.
`COC(=O)C1=C(c2ccccc2)C[C@@H]2CC[C@H]1N2C(=O)N1CCCC1` gave MT1-MMP act inh 1, Rce1 inhib inactive, CSC inhib 4, HIV Env fusion -4, Yeast UUG start 25 and MT1-MMP act inh RFP 4.
For O=C1/C(=C/c2cccc([N+](=O)[O-])c2)N2CCC1CC2 the results were MT1-MMP act inh -2, Rce1 inhib inactive, CSC inhib -9, HIV Env fusion 15, eIF4H inh 3, PABP FP inh 4 and MT1-MMP act inh RFP -1.
`O=C(COc1ccccc1)Nc1ccc(Cl)cc1C(=O)c1ccccc1` gave MT1-MMP act inh -3, Rce1 inhib inactive, CSC inhib 2, eIF4H inh 5, Yeast UUG start -13, PABP FP inh -7 and MT1-MMP act inh RFP -3.
Cc1cc(OC(C)C(=O)NCC(O)c2ccccc2)c2c3c(c(=O)oc2c1)CCC3 (configuration not stated) was read as MT1-MMP act inh 6, Rce1 inhib inactive, CSC inhib -1, HIV Env fusion -92, eIF4H inh -4, Yeast UUG start -10, PABP FP inh -10 and MT1-MMP act inh RFP 0.
For CN(C)c1ccc(NC(=O)CN2C(=O)CN=C(c3ccccc3)c3cc(Cl)ccc32)cc1 the results were MT1-MMP act inh 6, Rce1 inhib inactive, CSC inhib -16, HIV Env fusion 4, eIF4H inh -4, Yeast UUG start -18, PABP FP inh 8 and MT1-MMP act inh RFP 0.
`C#CC[N+]1(C)[C@@H]2CC[C@H]1CC(OC(=O)C(CO)c1ccccc1)C2` (some centres not stated) gave MT1-MMP act inh 1, Rce1 inhib inactive, CSC inhib -13, HIV Env fusion 3, eIF4H inh -6, Yeast UUG start -2, PABP FP inh 3 and MT1-MMP act inh RFP -2.
For N[C@@H](Cc1cc(Br)c(O)c(Br)c1)C(=O)O the results were Rce1 inhib inactive, CSC inhib -8, eIF4H inh 15 and PABP FP inh 7.
`CC1c2ccccc2-n2nncc2CN1CC1CCCCC1` (configuration not stated) gave MT1-MMP act inh 5, HIV Env fusion 17, Yeast UUG start -1 and MT1-MMP act inh RFP 2.
`CC[N+](CC)(CC#CCO)CC#Cc1ccccc1` gave MT1-MMP act inh -7, Rce1 inhib inactive, CSC inhib -3, HIV Env fusion 8, eIF4H inh 12, PABP FP inh -1 and MT1-MMP act inh RFP 4.
`O=c1[nH]c(=O)n(CCc2ccc(F)cc2)c(O)c1C=NCCCn1ccnc1` gave MT1-MMP act inh -2, Rce1 inhib inactive, CSC inhib 62, eIF4H inh 20, Yeast UUG start -23, PABP FP inh 26 and MT1-MMP act inh RFP 0.
Screening C[C@]12CC[C@H]3[C@@H](CCC4=CC(=O)CC[C@@]43O)[C@@H]1CCC2=O returned MT1-MMP act inh 0, Rce1 inhib inactive, CSC inhib -7, HIV Env fusion 11, eIF4H inh 1, Yeast UUG start -12, PABP FP inh -14 and MT1-MMP act inh RFP 6.
CC1CN(CCc2ccccc2)CC(C)O1 (configuration not stated) was read as MT1-MMP act inh 7, Rce1 inhib inactive, CSC inhib -11, HIV Env fusion 20, eIF4H inh 5, PABP FP inh 7 and MT1-MMP act inh RFP 9.
Screening COC(=O)C1=C(c2cc3ccccc3s2)C[C@@H]2CC[C@H]1N2C(=O)NCc1cccc2ccccc12 returned MT1-MMP act inh 5, Rce1 inhib inactive, CSC inhib 9, HIV Env fusion -38, Yeast UUG start -12 and MT1-MMP act inh RFP -6.
Screening CC1=C(C(=O)OC(C)C)[C@]2(C(=O)N(CC(N)=O)c3ccccc32)C(C#N)=C(N)O1 returned MT1-MMP act inh 4, Rce1 inhib inactive, CSC inhib 12, eIF4H inh -4, Yeast UUG start -8, PABP FP inh 1 and MT1-MMP act inh RFP 7.
For COC(=O)C1=C(c2cccc(OC)c2OC)C[C@@H]2CC[C@H]1N2C(=O)NC1CCCCC1 the results were MT1-MMP act inh 6, Rce1 inhib inactive, CSC inhib 5, HIV Env fusion -15, Yeast UUG start 10 and MT1-MMP act inh RFP -5.
For CC(Cc1ccccc1)NCc1ccccc1O (configuration not stated) the results were MT1-MMP act inh -1, Rce1 inhib inactive, HIV Env fusion -15, eIF4H inh 4, Yeast UUG start -15, PABP FP inh -2 and MT1-MMP act inh RFP 0.
C=C1CC[C@@]2(O)[C@H]3Cc4ccc(O)c5c4[C@@]2(CCN3CC2CC2)[C@H]1O5 was read as MT1-MMP act inh 3, Rce1 inhib inactive, CSC inhib 6, eIF4H inh -6, Yeast UUG start -23, PABP FP inh -10 and MT1-MMP act inh RFP 2.
Screening COc1ccc(S(=O)(=O)NC(CC(=O)N2CCC3(CC2)OCCO3)C(C)C)cc1 (configuration not stated) returned MT1-MMP act inh 4, Rce1 inhib inactive, eIF4H inh 4, PABP FP inh 2 and MT1-MMP act inh RFP 5.
For COc1cc(C(=O)Nc2ccc(Br)cc2C(=O)c2ccccc2Cl)cc(OC)c1OC the results were MT1-MMP act inh -7, Rce1 inhib inactive, CSC inhib 9, HIV Env fusion 20, eIF4H inh 2, PABP FP inh -11 and MT1-MMP act inh RFP -7.

Screening results (PubChem)
